Screening data deposited in PubChem BioAssay by National Center for Advancing Translational Sciences (NCATS).
VDR inh: vitamin D3 receptor (human) inhibition; 400,000 compounds, 0.93% hits; P11473; Potency, µM, inactives show max response, negative = inhibition, hits mostly inhibitors; VDR-SRC2-3 peptide fluorescence polarization, 2 h; AID 504847; active = well fitted inhibition curve with a large enough effect; inconclusive = small, poorly fitted or top-dose-only effect, or another doubt; inactive = no such curve, though single readings can be large or run the other way; note: series mostly up to about 120 µM
Target sequence (P11473 whole entry, looked up): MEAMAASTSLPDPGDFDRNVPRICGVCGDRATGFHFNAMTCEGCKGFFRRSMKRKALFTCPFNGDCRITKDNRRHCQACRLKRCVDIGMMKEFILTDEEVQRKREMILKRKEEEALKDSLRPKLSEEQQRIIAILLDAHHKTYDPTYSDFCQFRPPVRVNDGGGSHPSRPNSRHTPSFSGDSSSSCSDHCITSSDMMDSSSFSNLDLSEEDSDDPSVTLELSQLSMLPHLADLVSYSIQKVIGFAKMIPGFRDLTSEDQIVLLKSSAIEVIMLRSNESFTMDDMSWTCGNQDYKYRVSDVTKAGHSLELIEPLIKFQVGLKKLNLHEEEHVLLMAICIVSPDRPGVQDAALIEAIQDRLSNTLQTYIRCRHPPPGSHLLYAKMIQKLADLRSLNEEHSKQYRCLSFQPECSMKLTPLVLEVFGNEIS
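FP read-out; VDR + SRC2-3 coactivator peptide; 23 nl compound by pintool; 2 h RT incubation; reagents held at 4 deg C, protected from light.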
An asterisk follows results filed as active; ? = inconclusive; & = joins results of further samples; [ ] = dose if it differs, or a comment. % is set by controls: 0 for no effect and ±100 for the full control effect; potency is the fitted concentration of half-maximal effect.

canonical_smiles	VDR inh
O=C(Nc1ccc(F)cc1)c1ccc(-n2cnnc2)cc1	2%
COc1ccc(C(CCN2CCCC(C)C2)c2c(OC)cc(OC)c3c(C)cc(=O)oc23)cc1 (stereo not given)	-9%&-16%
Cc1ccc(C)c(Cn2c(=O)n(CC3CCC(C(=O)N4CCOCC4)CC3)c(=O)c3sccc32)c1 (stereo not given)	-8%
CCN(CC)S(=O)(=O)c1ccc2c(c1)nc(CCC(=O)OCC(=O)Nc1cc(Cl)cc(Cl)c1)n2C	13%
N#Cc1ccc(Oc2ccc(C(F)(F)F)cc2NC(=O)c2ccc(F)cc2)cc1	4%
Cc1nn(Cc2cccc(C(N)=O)c2)c(C)c1Br	-6%
Cc1ccc2c(c1)c1c(n2CC(O)CNC(CO)(CO)CO)CCCC1 (stereo not given)	4%
O=C(CNS(=O)(=O)c1ccc(F)c(Cl)c1)N1CCCC1	-8%
CCOc1ccc(-c2cc(C)n3nc(C(N)=O)cc3n2)cc1	-12%
COc1cccc(C(C)N(C)Cc2nc(-c3ccoc3)oc2C)c1 (stereo not given)	3%
CCCN(CC(=O)Nc1ccccc1C)C(=O)Cc1cccs1	-9%
CCOC(=O)c1c(NC(=O)CN2CCN(S(=O)(=O)c3cc(Cl)ccc3Cl)CC2)sc(C(=O)N(C)C)c1C	16%
CC(C)Oc1ccc(C(=O)Nc2nonc2-c2ccc(OC(C)C)cc2)cc1	-2%
Cc1nccn1CCc1nc(N)nc(N)n1	6%
Cc1cccc(Nc2nc(NCc3ccco3)nc(N)c2[N+](=O)[O-])c1	2%
Cc1cccc(CCNC(=O)Cn2ncc3c([nH]c4ccc(C)cc43)c2=O)c1	10%
COc1cc(/C=N/NS(=O)(=O)c2ccc(C)c([N+](=O)[O-])c2)cc([N+](=O)[O-])c1O	7%
COCCN(C(=O)CCc1nnc(CCc2c[nH]c3ccccc23)o1)C(C)C	21%
C[C@H](CO)N1C[C@H](C)[C@@H](CN(C)C(=O)NC2CCCCC2)Oc2c(cccc2N(C)C)C1=O	11%
COc1ccc2nc(N(Cc3cccnc3)C(=O)c3ccc(Cl)cc3)sc2c1	5%
Cc1cccc(Nc2nn3c(=O)c4cc5c(cc4nc3s2)OCO5)c1	14%
CN(C(=O)COC(=O)CSc1ccc([N+](=O)[O-])cc1)C1CCS(=O)(=O)C1 (stereo not given)	6%
CCOC(=O)C1CCCN(CC(O)COc2cccc(C)c2)C1 (stereo not given)	12%
Cc1cc(C)cc(NS(=O)(=O)c2ccc3c(c2)NC(=O)C(C)S3)c1 (stereo not given)	2%
CCCCc1ccc(CC2S/C(=C(\C#N)C(=O)N3CCOCC3)N(c3ccccc3)C2=O)cc1 (stereo not given)	-12%
CCOc1ccccc1CNC(=O)c1ccc(-n2c(C)cc3c2CCC(C)C3)cc1 (stereo not given)	18%
Cc1cc(=O)n(Cc2c(F)cccc2Cl)c2c1c(C)nn2C	2%
CCC(=O)Nc1ccc(Nc2ccccc2)cc1	-10%
CCCCCC1CC(CC(=O)NC(=S)Nc2ccccc2Cl)C(=O)O1 (stereo not given)	-3%
Cc1cc(C(C2C(=O)CC(C)(C)CC2=O)C2C(=O)CC(C)(C)CC2=O)cc(C)c1OC(F)F	10µM*
CC1(CCl)N([O-])C2=C(CCCC2)[N+]1=O (stereo not given)	11%
COc1ccccc1OCc1nnc(SCC(=O)c2cc(Cl)ccc2OC)o1	-11%
Cn1c(=O)c2[nH]c(N3CCOCC3)nc2n(-c2ccccc2)c1=O	-4%
Nc1ccc(-c2nc3ccc(-c4nc5ccccc5o4)cc3[nH]2)cc1	30%
COc1ccc(NC(=O)N2CCC(c3nc4ccccc4[nH]3)CC2)cc1	-6%
O=C(NCCc1c[nH]c2ccc(Cl)cc12)c1cccnc1	-10%
COc1ccc(C(=O)CC2(O)C(=O)N(Cc3ccccc3)c3ccc(Br)cc32)cc1 (stereo not given)	-13%
Cc1ccccc1-c1nn(-c2ccc(F)cc2F)cc1CNC1CC1	4%
CCCS(=O)(=O)c1cn2cccc(N)c2c1S(=O)(=O)CCC	?
Cc1nc2ccc(NC(=O)CSc3nnc(C)s3)cc2[nH]1	0%
Cc1ccc(C)c2[nH]c(=O)c(CN(CC3CCCO3)C(=S)NCc3ccco3)cc12 (stereo not given)	-1%
CCOC(=O)c1c(C)[nH]c(C(=O)N2CCCC(C(=O)c3cccc(OC)c3)C2)c1C (stereo not given)	7%
c1ccc(Cn2c[n+](Cc3ccccc3)cn2)cc1	-24%
Cc1ccc2c(c1)C(c1ccccc1)N(C(=O)c1ccccc1F)CC(=O)N2 (stereo not given)	2%
COC(=O)c1ccc(NC(=O)C[n+]2ccccc2C)cc1	-2%
Cc1c(-c2nnc(SCC(=O)O)n2-c2ccccc2Br)nnn1-c1ccccc1	-10%
O=C(COC(=O)C1CC2CCCC(C1)C2=O)NNC(=O)c1ccccc1F (stereo not given)	12%
COc1ccc2c(c1)C=CC1(O2)N(CCO)c2ccccc2C1(C)C (stereo not given)	-29%
CC(=O)NCCC(=O)Nc1nc(-c2cccs2)c(-c2cccs2)s1	-1%
C=CCOc1ccc(Br)cc1CNCCCN1CCOCC1	-4%
CCCn1c(SCC(=O)N2c3ccccc3CCc3ccccc32)nc2c1c(=O)n(C)c(=O)n2C	7%
O=C(/C=C/Nc1ccc(F)c(Cl)c1)c1ccco1	0%
O=C1c2ccc([N+](=O)[O-])cc2C(=O)N1Cc1cccnc1	10%
CC(=O)Nc1ccc(NC(=O)C(C)OC(=O)C2(c3ccc(F)cc3)CCCC2)cc1 (stereo not given)	-3%
COP(=O)(OC)C(Nc1ccc(C)cc1)c1ccc(Br)cc1 (stereo not given)	11%
Cc1ccccc1Cn1c(CN2CCC(C(=O)NCCN(C)C)CC2)cc2ccccc21	14%
COc1ccc(OCCCC(=O)Nc2nccs2)cc1	-14%
O=C(COc1ccc2c(-c3ccccc3)cc(=O)oc2c1)NCCCn1ccnc1	-13%
CCOc1nc(OCC)c2[nH]c(C(=O)O)c(Br)c2n1	-5%
COc1ccccc1-c1cc(C(=O)Nc2c(F)cc(F)cc2Br)no1	9%

(cont.)
canonical_smiles	VDR inh
CC12CCC(=O)N1C(C(=O)NNC(=O)c1ccc(Cl)cc1)CS2 (stereo not given)	-7%
COC(=O)c1cccc(NC(=O)Cn2cnc3c2c(=O)n(C)c(=O)n3C)c1	4%
Nc1c(C(=O)CCC(=O)O)oc2ccc(Cl)cc12	-9%
Cc1ccc(C2C3=C(CC(C)(C)CC3=O)OC3=C2C(=O)CC(C)(C)C3)cc1	-18%
CC1=C(C(=O)OCc2ccccc2)C(c2ccccc2-c2ccccc2)NC(=O)N1CCCCCC(=O)O (stereo not given)	-11%
Cc1ccc(S(=O)(=O)N2CCOCC2)cc1C(=O)OC(C)C(=O)c1ccccc1 (stereo not given)	3%
CCOc1cc(NC(=S)NCCCOC)c(OCC)cc1NC(=O)c1ccco1	-9%
CCOc1ccc(NC(=O)COC(=O)C2(C)CC2(Cl)Cl)c([N+](=O)[O-])c1 (stereo not given)	-3%
C/C(=N\NC(=S)NCc1ccccc1)c1ccc2ccccc2c1	-12%
COc1cc([N+](=O)[O-])cc2sc(NC(=O)C3CC3)nc12	-6%
COc1ccc(C(N)=O)cc1N	4%
COc1ccccc1Nc1nc(N)nc(CN2CCC(C)CC2)n1	1%
CCCc1nnc(NC(=O)CCC(=O)N2CCN(Cc3cc(Cl)ccc3OC)CC2)s1	13%
COc1ccc(C(=O)c2cn(Cc3ccccc3F)c3cc4c(cc3c2=O)OCCO4)cc1OC	5%
Cc1ccc(C(=O)NCCNC(=O)c2ccccc2)cc1	2%
O=C(CSc1nnc(CNC(=O)C23CC4CC(CC(C4)C2)C3)n1-c1ccccc1)Nc1ccccc1	7%
Cc1noc(C)c1COC(=O)c1cc2c(C)nn(-c3ccc(F)cc3)c2s1	-4%
Cc1cc(C)n2cnnc2n1	0%
O=C(NC(=S)Nc1ccc(NC(=O)c2ccccc2)cc1)c1ccc(F)cc1	12%
CC1CC(C)CN(C(=O)C2CC(=O)N(c3ccc4c(c3)OCCO4)C2)C1 (stereo not given)	17%
Cc1ccccc1NC(=O)NCCCN1CCCC1	-17%
CCN(CC)C(=O)CSc1nc(-c2ccccc2)ccc1C#N	-11%
Cn1c(C=O)c(C#Cc2ccccc2)c2ccccc21	-13%
O=c1c2ccccc2nc(-c2ccoc2)n1CCc1ccccc1	-16%
COc1ccc(/C(C)=N/NC(=O)c2cc(-c3cccnc3)nc3ccccc23)cc1	-12%
O=C(O)c1ccc(/C=N/N2CCN(C3c4ccccc4-c4ccccc43)CC2)cc1	-14%
CC1=C(C(=O)NCc2cccc(F)c2)C2(CCCCCC2)OC1=O	-9%
CC(C)N=C(N)N=C(N)Nc1ccc(Cl)cc1	-16%
Cc1ccc(NS(=O)(=O)c2cc(NC(=O)c3cc(=O)[nH]c(=O)[nH]3)ccc2Cl)c(C)c1	-3%
COc1cc(C(=O)COC(=O)Cc2cnc3sccn23)cc(OC)c1OC	2%
O=S1(=O)C=C(Oc2ccc(F)cc2)c2ccccc21	-8%
Cc1ccc(S(=O)(=O)N2CCCC(C(=O)NCCc3ccc(S(N)(=O)=O)cc3)C2)cc1 (stereo not given)	-3%
CC1(C)Cc2c(c(N3CCOCC3)nc3sc4c(NCc5ccccc5)nnnc4c23)CS1	5%
COC(=O)CSc1ncnc2c1cnn2-c1ccc(C)cc1C	-14%
Clc1ccc(-c2nnc(-c3ccc4ccccc4c3)o2)cc1	3%
COCC(COS(N)(=O)=O)C(C)C (stereo not given)	-5%
CC1CCCC(C)N1C(=O)COC(=O)c1cncc(Br)c1 (stereo not given)	0%
COC(=O)c1ccccc1NC(=O)c1cc2ccccn2n1	8%
Cc1cc(C)cc(NC(=O)NCC2CCN(Cc3cc(C)ccc3C)CC2)c1	5%&-7%
COCCn1c(SCC(=O)N2CCCc3ccccc32)nc2ccccc2c1=O	-7%
CC1OC1c1ccc(-c2ccc(C3OC3C)cc2)cc1 (stereo not given)	-13%
O=C(COc1ccccc1)Nc1ccc2nc(SCCOc3ccccc3)sc2c1	24%
Cc1cc(=O)oc(C)c1C(=O)NCCNC(=O)c1c(C)cc(=O)oc1C	13%
O=C(Nc1cccc(-c2nc3ncccc3o2)c1)c1sc2ccccc2c1Cl	-2%
CSc1nc2c(c(=O)[nH]c(=O)n2C)n1C/C=C(\C)Cl	-8%
COc1cc2cc(CCOC(=O)N3CCCCC3)oc(=O)c2cc1OC	-7%
O=C(Nc1ccc(OCC(=O)N2CCOCC2)cc1)c1cccc(Cl)c1	-7%
Brc1cccc(OCCSc2ncccn2)c1	-21%
CCSc1nnc(NC(=O)c2ccco2)s1	-4%
COC(=O)c1nn(C)c(=O)[nH]c1=O	13%
Cc1nnsc1Sc1ccccn1	-2%
CSc1nc(O)cc(=O)n1-c1ccc(F)cc1	1%
Nc1nn(-c2ccccc2)nc1C(=O)OCc1ccc(Cl)cc1	-11%
CC(=O)Nc1cccc(NC(=O)CSc2ncc(C(=O)Nc3ccc(F)cc3)c(=O)n2C)c1	3%
CS(=O)(=O)N1CCc2cc(-c3csc(NC(=O)Cc4ccccc4)n3)ccc21	-1%
CCc1c(N)nc(N)nc1Nc1ccc(C)c(C)c1	-5%
CCNc1ncnc2c1cnn2C1CCCO1 (stereo not given)	0%
COc1ccccc1N1CCN(Cc2cc(OC)c3c(c2)OCO3)CC1	-6%
Nc1ccc(-c2nc3ccc(N)cc3[nH]2)cc1	34%[activator]
Cc1oc2c(cc(NS(=O)(=O)c3ccc(Br)cc3)c3ccccc32)c1C(=O)OCc1ccccc1	-14%

In another format: entries from further up
> CCN(CC)S(=O)(=O)c1ccc2c(c1)nc(CCC(=O)OCC(=O)Nc1cc(Cl)cc(Cl)c1)n2C
  VDR inh = 13%

> N#Cc1ccc(Oc2ccc(C(F)(F)F)cc2NC(=O)c2ccc(F)cc2)cc1
  VDR inh = 4%

> Cc1nn(Cc2cccc(C(N)=O)c2)c(C)c1Br
  VDR inh = -6%

More results.
canonical_smiles	VDR inh
O=C(Nc1cccc(C(F)(F)F)c1)N(Cc1ccc(Cl)cc1)CC(O)C(F)(F)F (stereo not given)	-3%
CC1(C(=O)OCC(=O)NCCNC(=O)COC(=O)C2(C)CC2(Cl)Cl)CC1(Cl)Cl (stereo not given)	-27%
CCOC(=O)c1nc(N)sc1C(=O)OCC	13%
COc1ccc([N+](=O)[O-])cc1CSc1ccccn1	-26%
CCOC(=O)c1cc2c(=O)[nH]c(C(Cl)(Cl)Cl)nc2o1	-12%

In the list so far, these have a cyano group:
canonical_smiles	VDR inh
N#Cc1ccc(Oc2ccc(C(F)(F)F)cc2NC(=O)c2ccc(F)cc2)cc1	4%
CCCCc1ccc(CC2S/C(=C(\C#N)C(=O)N3CCOCC3)N(c3ccccc3)C2=O)cc1 (stereo not given)	-12%
CCN(CC)C(=O)CSc1nc(-c2ccccc2)ccc1C#N	-11%

These rows are one share of the data, so the mix of outcomes need not match the whole.
